# Env fusion inh: inhibitors of HIV-1 Env-driven cell-cell fusion, primary screen, HeLa-JRFL effector, CEM21 target cells, luciferase; AID 651610, 2012; 360,000 compounds, 1.1% hits; inhibition, % at 12.3 µM;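 active = mean replicate inhibition score of at least 50 and every replicate individually at or above 50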;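 also: 0% = plate neutral controls and 100% = maraviroc near 300 nM; one replicate is shown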
# Yeast UUG start: modulators of yeast start codon fidelity, primary screen, whole organism, S. cerevisiae, single point, plate reader. S. cerevisiae UUG-firefly luciferase reporter, luminescence/redox ratio. activity score, % at 18.7 µM. 350,000 compounds, 0.13% hits. AID 602363, 2012;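 active = replicate mean at a twofold rise or more, about +100% in these data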;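 also: firefly luciferase made from a UUG start codon reports start codon fidelity; reporter light over untreated wells divided by growth signal over untreated wells; some hits fall short of that in this replicate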
# Active calls of the source: *; [ ] = another dose, or the depositor's remark. The list is partial, so the mix of outcomes need not match the whole.
Env fusion inh	Yeast UUG start	SMILES
32[16.7 µM]	-16	Cc1ccc(S(=O)(=O)N(C)C[C@@H]2Oc3cc(C#Cc4ccccc4)ccc3S(=O)(=O)N([C@H](C)CO)C[C@@H]2C)cc1
8[16.7 µM]	2	C[C@@H]1CN([C@H](C)CO)C(=O)c2cc(-c3ccccc3F)cnc2O[C@H]1CN(C)C(=O)C1CCC1
6[16.7 µM]	-5	COc1ccc(NC(=O)N(C)C[C@@H]2Oc3c(NC(=O)c4ccncc4)cccc3C(=O)N([C@H](C)CO)C[C@@H]2C)cc1
2[16.7 µM]	19	COCC(=O)Nc1ccc2c(c1)C(=O)N(C)C[C@H](OC)[C@@H](C)CN(CCc1ccccc1)[C@H](C)CO2
-2[16.7 µM]	-2	CCc1cnc(N2[C@H](CO)[C@@H](c3ccc(C4=CCCC4)cc3)[C@@H]2C#N)s1
-15[16.7 µM]	26	C[C@@H](NC(=O)C[C@H]1CC[C@@H](NC(=O)C2CCC2)[C@@H](CO)O1)c1ccccc1
20[16.7 µM]	1	C[C@@H]1CCCCO[C@@H](CN(C)C(=O)c2ccccc2)[C@H](C)CN([C@@H](C)CO)C(=O)c2cc(NS(=O)(=O)c3cccs3)ccc2O1
0[16.7 µM]	-15	C[C@@H]1CCCCO[C@H](CN(C)C(=O)C2CCCCC2)[C@@H](C)CN([C@H](C)CO)C(=O)c2cc(NC(=O)NC3CCCCC3)ccc2O1
-1[16.7 µM]	18	Cc1ccccc1CN(C)C[C@H]1OCc2cn(nn2)CCCC(=O)N([C@@H](C)CO)C[C@H]1C
21[16.7 µM]	-9	C[C@H]1CN([C@@H](C)CO)S(=O)(=O)c2ccc(C#Cc3ccncc3)cc2O[C@H]1CN(C)S(=O)(=O)c1ccccc1
-2[16.7 µM]	-4	Cc1noc(C)c1NC(=O)N(C)C[C@@H]1Oc2ccc(NS(=O)(=O)c3c(C)noc3C)cc2CC(=O)N([C@H](C)CO)C[C@@H]1C
12[16.7 µM]	-9	COCCNC(=O)C[C@H]1C[C@@H]2c3cc(NC(=O)COC)ccc3O[C@@H]2[C@H](CO)O1
5[16.7 µM]	-6	O=C(NCC[C@H]1CC[C@H](NS(=O)(=O)c2ccc(F)cc2)[C@H](CO)O1)c1ccc2c(c1)OCO2
0[16.7 µM]	-12	COc1ccc(S(=O)(=O)N(C)C[C@H]2OCc3cn(nn3)CCCC(=O)N([C@@H](C)CO)C[C@H]2C)cc1
0[16.7 µM]	-4	N#C[C@H]1[C@H](c2ccccc2)[C@H](CO)N1S(=O)(=O)c1ccc(-c2ccccc2)cc1
-3[16.7 µM]	14	CN1C(=O)c2cc(NC(=O)C3CC3)ccc2OC[C@@H]2O[C@H](CC(=O)NCC3CCCCC3)CC[C@H]21

# A few values from the list:
# For Env fusion inh, C[C@@H]1CCCCO[C@@H](CN(C)C(=O)c2ccccc2)[C@H](C)CN([C@@H](C)CO)C(=O)c2cc(NS(=O)(=O)c3cccs3)ccc2O1 has the entry 20[16.7 µM]
# For Env fusion inh, C[C@H]1CN([C@@H](C)CO)S(=O)(=O)c2ccc(C#Cc3ccncc3)cc2O[C@H]1CN(C)S(=O)(=O)c1ccccc1 has the entry 21[16.7 µM]

# The list goes on:
Env fusion inh	Yeast UUG start	SMILES
3[16.7 µM]	-20	C[C@@H]1CN([C@@H](C)CO)C(=O)c2cc(C#C[C@@H](C)O)cnc2O[C@H]1CN(C)C(=O)CN(C)C
13[16.7 µM]	-8	Cc1ccc(-c2ccc3c(c2)O[C@@H](CN(C)C(=O)Nc2ccc(F)cc2)[C@@H](C)CN([C@@H](C)CO)S3(=O)=O)cc1
-5[16.7 µM]	0	Cc1ccc(-c2ccc3c(c2)O[C@H](CN(C)C(=O)C2CCC2)[C@@H](C)CN([C@H](C)CO)S3(=O)=O)cc1
4[16.7 µM]	0	Cc1noc(C)c1NC(=O)N(C)C[C@@H]1Oc2ccc(NC(=O)Nc3ccc4c(c3)OCO4)cc2C(=O)N([C@@H](C)CO)C[C@H]1C
0[16.7 µM]	15	CCNC(=O)C[C@@H]1CC[C@H]2[C@H](COc3ccc(NC(=O)c4cc(C)on4)cc3C(=O)N2C)O1
-8[16.7 µM]	-5	Cc1noc(C)c1NC(=O)N(C)C[C@H]1Oc2ccc(NC(=O)c3ccncc3)cc2CC(=O)N([C@@H](C)CO)C[C@@H]1C
-19[16.7 µM]	-4	COCC(=O)N(C)C[C@H]1Oc2ncc(C#Cc3ccccc3OC)cc2C(=O)N([C@@H](C)CO)C[C@H]1C
2[16.7 µM]	-3	CCNC(=O)C[C@@H]1CC[C@@H]2[C@H](COc3ccc(NC(=O)Cc4ccccc4)cc3C(=O)N2C)O1
-1[16.7 µM]	10	C[C@@H]1CCCCO[C@H](CN(C)C(=O)Cc2ccccc2)[C@@H](C)CN([C@H](C)CO)C(=O)c2cc(NC(=O)C3CCCCC3)ccc2O1
-10[16.7 µM]	-12	COCC#Cc1ccc2c(c1)O[C@H](CN(C)C(=O)C1CCCCC1)[C@@H](C)CN([C@@H](C)CO)S2(=O)=O
18[16.7 µM]	25	COCC(=O)Nc1ccc2c(c1)C(=O)N(C)[C@H]1CC[C@H](CC(=O)NCc3ccccc3Cl)O[C@@H]1CO2
-17[16.7 µM]	4	Cc1noc(C)c1NC(=O)N(C)C[C@H]1Oc2ncc(C#CCN(C)C)cc2C(=O)N([C@H](C)CO)C[C@H]1C
9[16.7 µM]	-7	C[C@@H]1CCCCO[C@H](CN(C)C(=O)Nc2ccc3c(c2)OCO3)[C@H](C)CN([C@@H](C)CO)C(=O)c2cc(NC(=O)Cc3ccccc3)ccc2O1
-5[16.7 µM]	7	O=C(C[C@@H]1C=C[C@H](NC(=O)Nc2ccc(C(F)(F)F)cc2)[C@H](CO)O1)NCc1ccccn1
-1[16.7 µM]	-8	C[C@H](O)C#Cc1ccc2c(c1)O[C@H](CN(C)CC1CCOCC1)[C@@H](C)CN([C@H](C)CO)S2(=O)=O
-2[16.7 µM]	8	COC(=O)C[C@H]1CC[C@H]2[C@@H](COc3ccc(NC(=O)c4cc(F)cc(F)c4)cc3C(=O)N2C)O1

# A different layout for 17 compounds above.
# Below each compound: Env fusion inh, Yeast UUG start
CN1C(=O)c2cc(NC(=O)C3CC3)ccc2OC[C@@H]2O[C@H](CC(=O)NCC3CCCCC3)CC[C@H]21
  -3[16.7 µM], 14
C[C@@H]1CN([C@@H](C)CO)C(=O)c2cc(C#C[C@@H](C)O)cnc2O[C@H]1CN(C)C(=O)CN(C)C
  3[16.7 µM], -20
Cc1ccc(-c2ccc3c(c2)O[C@@H](CN(C)C(=O)Nc2ccc(F)cc2)[C@@H](C)CN([C@@H](C)CO)S3(=O)=O)cc1
  13[16.7 µM], -8
Cc1ccc(-c2ccc3c(c2)O[C@H](CN(C)C(=O)C2CCC2)[C@@H](C)CN([C@H](C)CO)S3(=O)=O)cc1
  -5[16.7 µM], 0
Cc1noc(C)c1NC(=O)N(C)C[C@@H]1Oc2ccc(NC(=O)Nc3ccc4c(c3)OCO4)cc2C(=O)N([C@@H](C)CO)C[C@H]1C
  4[16.7 µM], 0
CCNC(=O)C[C@@H]1CC[C@H]2[C@H](COc3ccc(NC(=O)c4cc(C)on4)cc3C(=O)N2C)O1
  0[16.7 µM], 15
Cc1noc(C)c1NC(=O)N(C)C[C@H]1Oc2ccc(NC(=O)c3ccncc3)cc2CC(=O)N([C@@H](C)CO)C[C@@H]1C
  -8[16.7 µM], -5
COCC(=O)N(C)C[C@H]1Oc2ncc(C#Cc3ccccc3OC)cc2C(=O)N([C@@H](C)CO)C[C@H]1C
  -19[16.7 µM], -4
CCNC(=O)C[C@@H]1CC[C@@H]2[C@H](COc3ccc(NC(=O)Cc4ccccc4)cc3C(=O)N2C)O1
  2[16.7 µM], -3
C[C@@H]1CCCCO[C@H](CN(C)C(=O)Cc2ccccc2)[C@@H](C)CN([C@H](C)CO)C(=O)c2cc(NC(=O)C3CCCCC3)ccc2O1
  -1[16.7 µM], 10
COCC#Cc1ccc2c(c1)O[C@H](CN(C)C(=O)C1CCCCC1)[C@@H](C)CN([C@@H](C)CO)S2(=O)=O
  -10[16.7 µM], -12
COCC(=O)Nc1ccc2c(c1)C(=O)N(C)[C@H]1CC[C@H](CC(=O)NCc3ccccc3Cl)O[C@@H]1CO2
  18[16.7 µM], 25
Cc1noc(C)c1NC(=O)N(C)C[C@H]1Oc2ncc(C#CCN(C)C)cc2C(=O)N([C@H](C)CO)C[C@H]1C
  -17[16.7 µM], 4
C[C@@H]1CCCCO[C@H](CN(C)C(=O)Nc2ccc3c(c2)OCO3)[C@H](C)CN([C@@H](C)CO)C(=O)c2cc(NC(=O)Cc3ccccc3)ccc2O1
  9[16.7 µM], -7
O=C(C[C@@H]1C=C[C@H](NC(=O)Nc2ccc(C(F)(F)F)cc2)[C@H](CO)O1)NCc1ccccn1
  -5[16.7 µM], 7
C[C@H](O)C#Cc1ccc2c(c1)O[C@H](CN(C)CC1CCOCC1)[C@@H](C)CN([C@H](C)CO)S2(=O)=O
  -1[16.7 µM], -8
COC(=O)C[C@H]1CC[C@H]2[C@@H](COc3ccc(NC(=O)c4cc(F)cc(F)c4)cc3C(=O)N2C)O1
  -2[16.7 µM], 8

# Next part
Env fusion inh	Yeast UUG start	SMILES
-9[16.7 µM]	0	Cc1noc(C)c1NC(=O)N(C)C[C@@H]1OCCCC[C@@H](C)Oc2ccc(NC(=O)c3ccncc3)cc2C(=O)N([C@H](C)CO)C[C@H]1C
28[16.7 µM]	-5	C[C@H]1CN([C@@H](C)CO)S(=O)(=O)c2ccc(C#CC3CC3)cc2O[C@H]1CN(C)C(=O)c1ccccn1
-2[16.7 µM]	-2	C[C@@H]1CN([C@H](C)CO)C(=O)c2cccc(NC(=O)C3CCCCC3)c2O[C@@H]1CN(C)CC1CC1
-3[16.7 µM]	18	C[C@@H]1CCCCO[C@@H](CN(C)C(=O)Nc2cccc3ccccc23)[C@@H](C)CN([C@H](C)CO)C(=O)c2cc(NS(=O)(=O)c3ccccc3)ccc2O1
-7[16.7 µM]	-7	COc1cccc(NC(=O)N[C@@H]2CC[C@H](CC(=O)N3CCN(C)CC3)O[C@@H]2CO)c1
7[16.7 µM]	-7	COCC(=O)N(C)C[C@H]1Oc2ncc(C#C[C@@H](C)O)cc2C(=O)N([C@H](C)CO)C[C@H]1C
-21[16.7 µM]	1	COc1ccc(NC(=O)N[C@@H]2C=C[C@H](CC(=O)NC3CCCCC3)O[C@H]2CO)cc1
-4[16.7 µM]	-5	CCC(=O)N[C@H]1C=C[C@@H](CC(=O)OC)O[C@H]1CO
0[16.7 µM]	13	O=C(N[C@H]1CC[C@@H](CCNS(=O)(=O)c2ccc(Cl)cc2)O[C@H]1CO)c1cccc(F)c1
4[16.7 µM]	-4	C[C@@H]1CN([C@H](C)CO)C(=O)Cc2cc(N(C)C)ccc2O[C@H]1CN(C)S(C)(=O)=O
-32[16.7 µM]	-17	C[C@@H]1CCCCO[C@H](CN(C)C(=O)C2CCCCC2)[C@H](C)CN([C@@H](C)CO)C(=O)c2cc(NC(=O)Nc3ccc4c(c3)OCO4)ccc2O1
-13[16.7 µM]	-7	C[C@H]1CN([C@@H](C)CO)S(=O)(=O)c2ccc(C#CC3(O)CCCC3)cc2O[C@@H]1CN(C)C(=O)Cc1ccncc1
2[16.7 µM]	-22	Cc1noc(C)c1NC(=O)N(C)C[C@H]1Oc2ccc(NS(C)(=O)=O)cc2CC(=O)N([C@@H](C)CO)C[C@H]1C
10[16.7 µM]	-14	Cc1nn(C)cc1NC(=O)C[C@@H]1CC[C@H]2[C@@H](COc3ccc(NC(=O)C4CCC4)cc3C(=O)N2C)O1
-7[16.7 µM]	-4	Cc1noc(C)c1S(=O)(=O)Nc1ccc2c(c1)C(=O)N([C@H](C)CO)C[C@H](C)[C@@H](CN(C)S(=O)(=O)c1cn(C)cn1)OCCCC[C@H](C)O2
-2[16.7 µM]	8	CC(C)NC(=O)N(C)C[C@@H]1Oc2ncc(C#CCC3CCCC3)cc2C(=O)N([C@H](C)CO)C[C@@H]1C
-9[16.7 µM]	16	COc1ccc(NC(=O)N(C)C[C@H]2OCCCC[C@@H](C)Oc3ccc(NS(=O)(=O)c4cccs4)cc3C(=O)N([C@H](C)CO)C[C@@H]2C)cc1
-20[16.7 µM]	-7	COc1ccc(NC(=O)Nc2ccc3c(c2)C(=O)N([C@@H](C)CO)C[C@@H](C)[C@@H](CN(C)Cc2ccc(Oc4ccccc4)cc2)O3)cc1
2[16.7 µM]	-25	COc1ccc(NC(=O)N(C)C[C@@H]2Oc3ccc(NC(=O)C4CC4)cc3C(=O)N([C@H](C)CO)C[C@@H]2C)cc1
6[16.7 µM]	-2	C[C@@H]1CN([C@H](C)CO)C(=O)c2cc(NC(=O)Nc3ccc(F)cc3)ccc2O[C@@H](C)CCCCO[C@@H]1CN(C)Cc1ccncc1
25[16.7 µM]	7	Cc1ccc(S(=O)(=O)N(C)C[C@@H]2Oc3ccc(NS(=O)(=O)c4c(C)noc4C)cc3C(=O)N([C@H](C)CO)C[C@@H]2C)cc1
19[16.7 µM]	-3	Cc1ccc(S(=O)(=O)Nc2ccc3c(c2)C(=O)N([C@H](C)CO)C[C@H](C)[C@@H](CN(C)C(=O)Nc2cccc4ccccc24)O3)cc1
15[16.7 µM]	-5	COC(=O)[C@@]1(Cc2ccccc2N=[N+]=[N-])COC(c2ccc(OCCCO)cc2)=N1
-11[16.7 µM]	1	CC(C)NC(=O)N(C)C[C@H]1Oc2c(NC(=O)C3CCCCC3)cccc2C(=O)N([C@@H](C)CO)C[C@@H]1C

# Source: PubChem BioAssay
